# Bioassay records: PubChem BioAssay, Broad Institute
# UUG fidelity – modulators of yeast start codon fidelity, primary screen, whole organism, S. cerevisiae, single point, plate reader; AID 602363, 2012; S. cerevisiae UUG-firefly luciferase reporter, luminescence/redox ratio; activity score, % at 18.7 µM; 350,000 tested, 0.13% active;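 active = replicate mean at a twofold rise or more, about +100% in these data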;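 also: firefly luciferase made from a UUG start codon reports start codon fidelity; reporter light over untreated wells divided by growth signal over untreated wells; some hits fall short of that in this replicate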
# Numbers without * were called inactive. Only part of the results is shown; count on the stated rates, not on these rows.
cpd	UUG fidelity	molecule
1	4	COc1ccc(NC(=O)Nc2ccc3c(c2)[C@H]2C[C@H](CC(=O)N(C)C)O[C@H](CO)[C@H]2O3)cc1
2	-1	COCC(=O)Nc1ccc2c(c1)C(=O)N(C)C[C@H](OC)[C@H](C)CN(Cc1ccccc1F)[C@H](C)CO2
3	-8	CCC(=O)Nc1ccc2c(c1)C(=O)N(C)C[C@H](OC)[C@H](C)CN(CC1CCCCC1)[C@@H](C)CO2
4	-6	Cc1cccc(S(=O)(=O)N2C[C@H](O)COC[C@@H]3O[C@H](CC(=O)NCc4ccncn4)CC[C@H]32)c1
5	25	O=C(NC1CCCC1)[C@@H]1[C@@H](CO)[C@@H]2Cn3c(ccc(-c4ccccc4)c3=O)[C@@H]2N1CCc1ccccc1
6	-15	CCCNC(=O)N1C[C@H]2[C@@H](c3ccccc31)[C@@H](CO)N2Cc1cc(F)ccc1F
7	13	N#Cc1cccc(-c2ccc([C@@H]3[C@@H](CO)N4CCCCN(C(=O)Nc5ccc(F)cc5)C[C@@H]34)cc2)c1
8	15	COc1cccc(C(=O)N2C[C@H]3[C@@H](c4ccccc42)[C@@H](CO)N3C(C)=O)c1
9	1	COc1ccc(CN(C)C[C@@H]2Oc3ccc(NS(C)(=O)=O)cc3C(=O)N([C@H](C)CO)C[C@H]2C)cc1
10	-30	O=C(c1ccccc1)N1CC[C@@H]2[C@H]1c1cc(C#Cc3ccccc3F)ccc1N[C@@H]2CO
11	-7	CO[C@@H]1CN(C)C(=O)c2cc(NC(=O)Nc3ccccc3F)ccc2OC[C@H](C)N(CCC(F)(F)F)C[C@H]1C
12	6	C[C@H]1CN([C@@H](C)CO)C(=O)c2cc(NC(=O)C3CCCCC3)ccc2O[C@@H]1CN(C)C(=O)Nc1ccccc1
13	-16	CN(C)C(=O)c1ccc(-c2ccc3c(c2)[C@H]2[C@H](CCN2C(=O)c2ccccc2)[C@H](CO)N3)cc1
14	0	CCCNC(=O)N1[C@@H](CO)[C@H](c2ccc(C3=CCCC3)cc2)[C@@H]1CNC(C)=O
15	-4	Cc1ccc(S(=O)(=O)Nc2ccc3c(c2)CC(=O)N([C@@H](C)CO)C[C@@H](C)[C@H](CN(C)Cc2ccc4c(c2)OCO4)O3)cc1
16	-3	O=C(c1ccccn1)N1C[C@@H]2[C@H](c3ccccc31)[C@H](CO)N2C(=O)C1CCOCC1
17	74	O=C(C1CCC1)N1C[C@@H]2[C@H](c3ccccc31)[C@@H](CO)N2C(=O)Cc1ccccn1
18	-2	COc1ccc(S(=O)(=O)N2CC[C@@H]3[C@@H](CO)Nc4ccc(Br)cc4[C@@H]32)cc1
19	1	Cc1ccc(S(=O)(=O)Nc2ccc3c(c2)CC(=O)N([C@H](C)CO)C[C@@H](C)[C@@H](CN(C)C(=O)NC2CCCCC2)O3)cc1
20	41	O=C(Nc1ccc(F)cc1)N1C[C@@H]2[C@H](c3ccccc31)[C@@H](CO)N2C(=O)c1ccccn1

# A different layout for part of the listing above.
nr	compound	UUG fidelity
12	C[C@H]1CN([C@@H](C)CO)C(=O)c2cc(NC(=O)C3CCCCC3)ccc2O[C@@H]1CN(C)C(=O)Nc1ccccc1	6
17	O=C(C1CCC1)N1C[C@@H]2[C@H](c3ccccc31)[C@@H](CO)N2C(=O)Cc1ccccn1	74
14	CCCNC(=O)N1[C@@H](CO)[C@H](c2ccc(C3=CCCC3)cc2)[C@@H]1CNC(C)=O	0
7	N#Cc1cccc(-c2ccc([C@@H]3[C@@H](CO)N4CCCCN(C(=O)Nc5ccc(F)cc5)C[C@@H]34)cc2)c1	13
10	O=C(c1ccccc1)N1CC[C@@H]2[C@H]1c1cc(C#Cc3ccccc3F)ccc1N[C@@H]2CO	-30

# The results go on:
cpd	UUG fidelity	molecule
21	-6	O=C(C[C@@H]1CC[C@H]2[C@@H](COC[C@H](O)CN2CC2CCOCC2)O1)N1CCOCC1
22	18	CCOC(=O)N(C)C[C@@H]1OCc2ccccc2-c2c(n(C)c3ccccc23)C(=O)N([C@@H](C)CO)C[C@H]1C
23	0	C[C@@H]1CN([C@@H](C)CO)C(=O)c2cccc(NC(=O)Nc3ccccc3)c2O[C@@H]1CN(C)Cc1ccc2c(c1)OCO2
24	20	C[C@@H]1CN([C@@H](C)CO)C(=O)c2cccc(NC(=O)c3cnccn3)c2O[C@@H]1CN(C)C(=O)Nc1ccc2c(c1)OCO2
25	-4	CN1C[C@@H]2[C@H](c3ccccc31)[C@H](CO)N2C(=O)C1CCOCC1
26	13	Cc1ccc(S(=O)(=O)Nc2ccc3c(c2)CC(=O)N([C@@H](C)CO)C[C@H](C)[C@@H](CN(C)C)O3)cc1
27	-10	C[C@H]1CN([C@@H](C)CO)C(=O)c2cc(NC(=O)Cn3cnnn3)ccc2O[C@@H]1CN(C)S(=O)(=O)c1cccs1
28	3	COc1ccc(CN(C)C[C@@H]2Oc3ccc(NC(=O)CCC(F)(F)F)cc3C(=O)N([C@@H](C)CO)C[C@H]2C)cc1
29	-10	CO[C@@H]1CN(C)C(=O)c2cc(NC(=O)C3CC3)ccc2OC[C@H](C)N(Cc2ccccc2)C[C@H]1C
30	-8	COc1ccc(CN2C[C@@H](O)COC[C@H]3O[C@@H](CC(=O)N4CCc5ccccc5C4)CC[C@@H]32)cc1
31	12	C/C=C/c1ccc([C@@H]2[C@@H](CN(CC)C(=O)CC)N(C(=O)C3CCC3)[C@H]2CO)cc1
32	-18	OC[C@@H]1[C@@H](c2ccc(-c3ccccc3F)cc2)[C@H]2CN(Cc3cccnc3)CCCCN12
33	-4	COCC#Cc1ccc([C@@H]2[C@H](CO)N3CCCCN(S(=O)(=O)c4ccccc4F)C[C@@H]23)cc1
34	0	CO[C@@H]1CN(C)C(=O)c2ccc(NC(=O)Nc3ccc(Cl)cc3)cc2OC[C@H](C)N(C(=O)Nc2c(C)noc2C)C[C@H]1C
35	1	O=S(=O)(Cc1ccccc1)N1CCCCN2[C@H](C1)[C@H](c1ccc(-c3cccnc3)cc1)[C@@H]2CO
36	-2	O=C(C[C@H]1CC[C@@H]2[C@H](COC[C@@H](O)CN2C(=O)Nc2ccc(F)cc2)O1)NCCc1ccncc1
37	1	COCCNC(=O)C[C@@H]1CC[C@@H]2[C@H](COc3ccc(NC(=O)Nc4cccc(F)c4)cc3C(=O)N2C)O1
38	-8	CNC[C@H]1Oc2ccc(NS(=O)(=O)c3ccc(F)cc3)cc2CC(=O)N([C@@H](C)CO)C[C@H]1C
39	3	CN1C(=O)c2cc(NC(=O)NC3CCCC3)ccc2OC[C@H]2O[C@H](CC(=O)O)CC[C@H]21
40	-7	C[C@H](CO)N1C[C@H](C)[C@H](CN(C)C(=O)Nc2ccccc2)Oc2c(NS(C)(=O)=O)cccc2C1=O
41	-6	COc1cccc(-c2ccc([C@@H]3[C@H]4CN(S(=O)(=O)c5cccs5)CCCCN4[C@H]3CO)cc2)c1
42	13	COc1ccc(CN(C)C[C@H]2Oc3ccc(NC(=O)NC4CCCCC4)cc3C(=O)N([C@H](C)CO)C[C@@H]2C)cc1
43	21	O=C(Cc1ccccc1)N1C[C@@H]2[C@H](c3ccccc31)[C@H](CO)N2C(=O)Cc1ccccc1
44	23	C[C@@H]1CN([C@H](C)CO)C(=O)Cc2cc(NC(=O)Cc3cn(C)c4ccccc34)ccc2O[C@@H]1CN(C)S(C)(=O)=O
45	-8	Cc1noc(C)c1NC(=O)N(C)C[C@@H]1Oc2ccc(NS(=O)(=O)c3ccc(F)cc3)cc2C(=O)N([C@@H](C)CO)C[C@H]1C
46	8	C[C@H](CO)N1C[C@H](C)[C@@H](CN(C)C(=O)Nc2ccc(F)cc2)Oc2c(NC(=O)Nc3ccccc3)cccc2C1=O
47	27	Cc1cccc(-c2ccc([C@H]3[C@@H](CO)N4CCCCN(C(=O)c5ccc6c(c5)OCO6)C[C@@H]34)cc2)c1
48	14	C[C@@H]1CN([C@H](C)CO)C(=O)c2cccc(NC(=O)Nc3ccccc3)c2O[C@H]1CN(C)C(=O)Nc1ccc(F)cc1
49	-3	COc1ccc(CN(C)C[C@H]2Oc3c(NC(=O)c4cnccn4)cccc3C(=O)N([C@H](C)CO)C[C@@H]2C)cc1
50	-8	CN(C)CC(=O)Nc1ccc2c(c1)[C@H]1C[C@@H](CC(=O)N3CCN(C)CC3)O[C@@H](CO)[C@H]1O2
51	11	C[C@H]1CN([C@@H](C)CO)C(=O)c2cccc(NC(=O)c3ccncc3)c2O[C@@H]1CN(C)Cc1ccc(-c2ccccc2)cc1
52	-5	COCC(=O)N1C[C@H](C)[C@@H](OC)CN(C)C(=O)c2cc(NC(=O)c3cnccn3)ccc2OC[C@H]1C
53	-6	Cc1noc(C)c1S(=O)(=O)Nc1ccc2c(c1)C(=O)N([C@@H](C)CO)C[C@@H](C)[C@H](CN(C)Cc1ccc(C(=O)O)cc1)O2
54	-7	CN1c2ccc(-c3ccccc3)cc2[C@@H]2[C@@H](CCN2C(=O)Cc2cccnc2)[C@H]1CO
55	16	C[C@H](CO)N1C[C@H](C)[C@H](CN(C)CC2CCCCC2)Oc2c(NC(=O)c3nc4ccccc4s3)cccc2C1=O
56	-1	COCC(=O)N1[C@H](CN(C)C(=O)c2cccnc2)[C@@H](c2ccccc2)[C@@H]1CO
57	2	Cn1cnc(S(=O)(=O)N2CC[C@@H]3[C@H]2c2cc(-c4ccccc4)ccc2N[C@@H]3CO)c1
58	-6	C[C@H]1CN([C@@H](C)CO)C(=O)c2cc(NS(=O)(=O)c3ccccc3)ccc2O[C@H]1CN(C)C(=O)NC1CCCCC1
59	6	C[C@@H]1CN([C@@H](C)CO)C(=O)Cc2cc(NC(=O)CCCCCC(=O)Nc3ccccc3N)ccc2O[C@@H]1CN(C)C
60	12	CN(C[C@H]1[C@H](c2ccccc2)[C@@H](CO)N1C(=O)c1ccccc1)C(=O)C1CCC1
61	7	CN1C(=O)c2cc(NC(=O)C3CC3)ccc2OC[C@@H]2O[C@@H](CC(=O)NCCN3CCCC3)CC[C@H]21
62	-33	O=C(Cc1ccccc1)N1CC[C@H]2[C@H](CO)Nc3ccc(C#Cc4ccccc4)cc3[C@H]21
63	5	C[C@H](CO)N1C[C@H](C)[C@@H](CN(C)S(=O)(=O)c2cccs2)Oc2c(NS(C)(=O)=O)cccc2C1=O
64	0	CCCC(=O)Nc1ccc2c(c1)C(=O)N(C)C[C@H](OC)[C@H](C)CN(C(=O)c1cnccn1)[C@@H](C)CO2
65	-7	O=S(=O)(Cc1ccccc1)N1CCCCN2[C@H](CO)[C@H](c3ccc(-c4cncnc4)cc3)[C@@H]2C1
66	-8	Cc1ccc(-c2ccc([C@H]3[C@H](CO)N4CCCCN(C)C[C@@H]34)cc2)cc1
67	-3	O=C(Nc1ccc(F)cc1)N1C[C@H]2[C@@H](c3ccccc31)[C@@H](CO)N2Cc1ccccc1
68	-19	CN(C)c1ccc2c(c1)[C@@H]1C[C@@H](CC(=O)NCc3ccccc3F)O[C@H](CO)[C@@H]1O2
69	0	CNC(=O)C[C@H]1CC[C@@H]2[C@H](COC[C@H](O)CN2Cc2ccncc2)O1
70	16	C[C@@H]1CN([C@H](C)CO)C(=O)c2cccc(NS(=O)(=O)c3ccccc3)c2O[C@H]1CN(C)Cc1ccc(-c2ccccc2)cc1
71	-5	CO[C@@H]1CN(C)C(=O)c2cc(NC(=O)C3CCCC3)ccc2OC[C@H](C)N(CCC(F)(F)F)C[C@@H]1C
72	-1	CC(=O)N1CC[C@@H]2[C@H]1c1cc(-c3ccccc3)ccc1N(C)[C@@H]2CO
73	-3	COc1ccc(CNC(=O)C[C@H]2C[C@@H]3c4cc(N(C)C)ccc4O[C@@H]3[C@H](CO)O2)cc1
74	4	CN1c2ccc(-c3ccc(C#N)cc3)cc2[C@@H]2[C@@H](CCN2C(=O)CN2CCOCC2)[C@@H]1CO
75	2	O=C(C1CCCCC1)N1C[C@@H]2[C@H](c3ccccc31)[C@H](CO)N2Cc1ccccc1Cl
76	-7	Cc1ccc(S(=O)(=O)N(C)C[C@H]2OCc3cnnn3CCCC(=O)N([C@@H](C)CO)C[C@@H]2C)cc1
77	-6	COCC(=O)NC[C@H]1[C@@H](c2ccc(C3=CCCC3)cc2)[C@H](CO)N1C(C)=O
78	-3	CO[C@H]1CN(C)C(=O)c2ccc(NS(=O)(=O)CC(F)(F)F)cc2OC[C@H](C)N(CC2CCCCC2)C[C@H]1C
79	-1	COCC(=O)N1C[C@@H]2[C@H](c3ccccc31)[C@H](CO)N2C(=O)C1CC1
80	-1	O=C(C[C@@H]1CC[C@@H]2[C@H](COC[C@@H](O)CN2S(=O)(=O)c2cccc(Cl)c2)O1)Nc1ccccc1

# Reprinted at random: three entries already listed, in no set order.
cpd	UUG fidelity	molecule
68	-19	CN(C)c1ccc2c(c1)[C@@H]1C[C@@H](CC(=O)NCc3ccccc3F)O[C@H](CO)[C@@H]1O2
66	-8	Cc1ccc(-c2ccc([C@H]3[C@H](CO)N4CCCCN(C)C[C@@H]34)cc2)cc1
80	-1	O=C(C[C@@H]1CC[C@@H]2[C@H](COC[C@@H](O)CN2S(=O)(=O)c2cccc(Cl)c2)O1)Nc1ccccc1

# In a second layout: 2 of the compounds above
item	Structure	UUG fidelity
21	O=C(C[C@@H]1CC[C@H]2[C@@H](COC[C@H](O)CN2CC2CCOCC2)O1)N1CCOCC1	-6
22	CCOC(=O)N(C)C[C@@H]1OCc2ccccc2-c2c(n(C)c3ccccc23)C(=O)N([C@@H](C)CO)C[C@H]1C	18

# Additional structures.
cpd	UUG fidelity	molecule
81	-4	C[C@@H]1CN([C@@H](C)CO)C(=O)c2cc(NS(=O)(=O)c3cn(C)cn3)ccc2O[C@H]1CN(C)C(=O)Nc1ccc2c(c1)OCO2
82	-6	O=C(Nc1ccc2c(c1)[C@H]1C[C@@H](CC(=O)N3CCOCC3)O[C@H](CO)[C@H]1O2)NC1CCCC1
83	14	COc1ccc(NC(=O)N(C)C[C@H]2Oc3ccc(NS(=O)(=O)c4ccc(F)cc4)cc3C(=O)N([C@@H](C)CO)C[C@H]2C)cc1
84	-12	O=C(c1ccccn1)N1C[C@@H]2[C@H](c3ccccc31)[C@@H](CO)N2C(=O)CC1CC1
85	-14	CN(C)CC(=O)N1CCCCN2[C@H](CO)[C@H](c3ccc(-c4cccc(C(=O)N(C)C)c4)cc3)[C@@H]2C1
86	9	O=C(Nc1ccccc1)N1CCCCN2[C@@H](CO)[C@@H](c3ccc(C#Cc4ccccn4)cc3)[C@@H]2C1
87	-13	COCC(=O)N1C[C@H]2[C@@H](c3ccccc31)[C@@H](CO)N2C(=O)C1CCCCC1
